# Menin MLL FP FL – displaces fluorescein MLL peptide from human menin. 290,000 tested, under 10 active. FP activity change, % at 61.4 µM. Fluorescence polarization, fluorescein-MLL peptide displacement from menin; inconclusive = falling polarisation curve, or a change in total fluorescence; inactive = total fluorescence flat and polarisation flat or rising; no compound was filed as active; the % refers to the polarisation; negative = inhibition;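 note: % of control where 0% means no effect; inhibitors lower the polarisation; unlabelled MLL peptide was the positive control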
# D2 potentiator – human D2 receptor positive allosteric modulation; potentiation, % (test concentration not listed); P14416; DiscoveRx D2 beta-arrestin cells, luminescence, 90 min; 100% = 57 uM dopamine signal; 360,000 compounds, 0.23% hits; active = potentiation of 50% or more; inconclusive = 30% to 50%; inactive = 30% or less;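 note: compound concentration not given in the record; tested on top of an EC20 dose of dopamine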
# Target sequence (P14416 whole entry, looked up): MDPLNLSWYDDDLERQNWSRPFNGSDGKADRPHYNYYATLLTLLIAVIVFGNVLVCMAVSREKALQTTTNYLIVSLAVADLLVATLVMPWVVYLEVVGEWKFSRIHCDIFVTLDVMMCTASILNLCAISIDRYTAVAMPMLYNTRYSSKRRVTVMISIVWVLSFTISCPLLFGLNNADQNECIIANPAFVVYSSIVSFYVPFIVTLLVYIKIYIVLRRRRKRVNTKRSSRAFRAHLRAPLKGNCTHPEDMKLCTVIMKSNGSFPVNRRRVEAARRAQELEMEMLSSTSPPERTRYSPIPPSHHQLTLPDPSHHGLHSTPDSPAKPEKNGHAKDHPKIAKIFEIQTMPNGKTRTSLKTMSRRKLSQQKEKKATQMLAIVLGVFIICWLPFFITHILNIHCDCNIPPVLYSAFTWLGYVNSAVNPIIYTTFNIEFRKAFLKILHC
#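 PathHunter beta-arrestin assay in DiscoveRx D2 cells. Compounds were added with an EC20 of dopamine (50 nM final) for 90 min at 37 deg C. Luminescence was read 1 h after detection reagent, with 57 uM dopamine as the EC100 control.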
# ClpP mod – qHTS Assay for Activators of ClpP; purified B. subtilis ClpP, FRET peptide cleavage, 20 min; Potency, µM (doses to about 57.5 µM), without a hit: at the top dose activity change, negative = active; 340,000 compounds, 1.9% hits; AID 651965, 2013; active = well fitted falling curve with a large enough effect; inconclusive = small, poorly fitted or top-dose-only effect; inactive = no such curve, though single readings can be large or run the other way; note: potency is the fitted concentration of half-maximal effect; the source files actives as falling curves though it sought activators and does not explain the sign; nearly all actives have a fitted effect of over 65% in size; many hits overshoot -100%
# Target sequence (P80244 whole entry, looked up): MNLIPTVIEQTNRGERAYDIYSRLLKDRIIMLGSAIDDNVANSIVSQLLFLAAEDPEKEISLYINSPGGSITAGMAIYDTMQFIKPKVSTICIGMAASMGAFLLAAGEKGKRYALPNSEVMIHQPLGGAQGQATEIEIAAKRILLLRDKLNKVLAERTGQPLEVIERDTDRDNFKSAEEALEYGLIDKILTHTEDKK
#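 Purified B. subtilis ClpP, 10 microg/mL final in Tris/HCl pH8 with KCl, BSA, glycerol and Tween-20, cleaved an Abz/nitrotyrosine-quenched decapeptide. Fluorescence (ex 320, em 430) was read at 0 and 20 min at room temperature. Delta was normalized to 5.8 microM ADEP and DMSO/no-enzyme controls.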
# gsp agonist – gsp mutant agonism; gsp mutant cells, cAMP HTRF, 30 min; control for the full effect not named in the record; Potency, µM (highest dose often 76.9 µM), inactives show at the top dose activation (cAMP increase), usual class: activators; 340,000 compounds, 0.13% hits; active = well fitted activation curve with a large enough effect; inconclusive = small, poorly fitted or top-dose-only effect, or another doubt; inactive = no such curve, though single readings can be large or run the other way; cell line not stated here;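 note: phosphodiesterase inhibitor Ro 20-1724 added with compounds to block cAMP breakdown; potency is the fitted concentration of half-maximal effect; nearly all actives have a fitted effect of over 60% in size; about a fifth of the inactives were tested at one dose only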
#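 Cells stably selected in G418 were plated at 2000/well, grown 16-24 hr, then given compounds in DMSO with the PDE inhibitor […] (300 uM solution added) for 30 min at 37C; cAMP was read by HTRF.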
# TRPV1 PAM – enhances activation of the human vanilloid receptor TRPV1. Q8NER1. AID 540277. TRPV1-expressing cells, Fluo-8 calcium influx, capsaicin EC20 potentiation; host cell line not named in the record; control for the full effect not named in the record. potentiation, % at 8.33 µM. 320,000 compounds, 0.02% hits; active means potentiation above 80%; inconclusive means 30% to 80%; inactive means below 30%; note: 0% is about no effect
#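 Cells expressing TRPV1 were dye-loaded with Fluo-8 and read kinetically: 10 s baseline, 3 min after compound (agonist portion), then 2 min after EC20 capsaicin (allosteric enhancer portion). Calcium-bound dye fluorescence at 480/520 nm.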
# Sfp PPTase inh – Sfp phosphopantetheinyl transferase inhibition; Potency, µM, for inactives: max response, negative = inhibition, hits mostly inhibitors; Biochemical Sfp PPTase activity, qHTS; AID 1490; Q9F4F7; 310,000 compounds, 3.5% hits; active = well fitted inhibition curve with a large enough effect; inconclusive = small, poorly fitted or top-dose-only effect, or another doubt; inactive = no such curve, though single readings can be large or run the other way;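 note: the enzyme is Sfp with the accession as filed and its product quenches rhodamine fluorescence; potency is the fitted concentration of half-maximal effect; 0% = enzyme reaction without inhibitor and -100% = no enzyme wells; top concentration of the series not given in the record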
#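 Reaction rates are the 30-min fluorescence difference (ex 525, em 598 nm) in wells containing 15 nM Sfp, 5 uM rhodamine-CoA and 12.5 uM BHQ-2-YbbR at pH 7.6 with 10 mM MgCl2.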
# gsp antag – antagonists of gsp mutant (McCune-Albright syndrome). 340,000 compounds, 0.4% hits. AID 624288. Potency, µM (doses to about 76.9 µM), without a hit: top-dose activity change, negative = inhibition, most hits filed as inhibitors. gsp-mutant cells, cAMP HTRF, 30 min; control for the full effect not named in the record; active = falling curve of any shape with a large fitted effect; inconclusive = falling curve, mostly with a smaller effect; inactive = flat or rising curve; cell line not stated here;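 note: intracellular cAMP measured with PDE inhibitor Ro 20-1724 present during compound exposure; potency is the fitted concentration of half-maximal effect; % is set by controls: 0 for no effect and ±100 for the full control effect; nearly all actives have a fitted effect of over 65% in size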
#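 G418-selected cells were plated in DMEM/10% FBS for 16-24 h at 37C, then treated with compounds plus the PDE inhibitor […] (300 uM solution added) for 30 min at 37C. Intracellular cAMP was measured by HTRF after 30 min lysis at room temperature.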
# Active calls of the source: *; u = inconclusive; x = not tested or not shown; [ ] = remark or other dose.
1: CCOC(=O)C1CCN(C(=O)Cn2cnc3sc(C)c(S(=O)(=O)N4CCOCC4)c3c2=O)CC1
2: CCOC(=O)Cn1c(Br)nc2c1c(=O)[nH]c(=O)n2C
3: COc1ccc(C(=O)NCc2cccc(Cl)c2)cc1S(=O)(=O)N1CCOCC1
4: c1ccc2c(Nc3nnc(-c4ccncc4)s3)cccc2c1
5: CCOc1cc(/C=N\NC(=O)Cc2ccccc2)ccc1OCC(=O)Nc1ccc(C)c(C)c1
6: CCN1CCN(c2ccc(NC(=O)CC3OC(=O)c4ccccc43)cc2C)CC1 (stereo not given)
7: Cc1nc(-c2ccc(C#N)cc2)cs1
8: O=C(O)c1cc2ccc3ccccc3c2oc1=O

assay / compound,1,2,3,4,5,6,7,8
Sfp PPTase inh,19%,-1%,x,-20%,3%,x,8%,u
ClpP mod,x,-2.5%,-18%,0.5%,18%,-1.4%,-12%,76%
Menin MLL FP FL,1.4,-1.9,x,-0.7,-0.8,x,-0.7,-3.3
gsp antag,-8%,3%,1%,-9%,9%,x,9%,6%
gsp agonist,-16%[15.4 µM],-51%[inhibitor],13%,-4%,-53%[inhibitor],-105%[inhibitor],-3%,16%
TRPV1 PAM,6,-4,1,-15,-12,x,13,-3
D2 potentiator,-11,18,-9,5,-4,-19,-4,-11

9: Oc1ccc(Br)cc1/C=N/n1cnc2ccccc21
10: O=C(c1ccc2c(=O)n(-c3ccccc3)c(=S)[nH]c2c1)N1CCN(c2ccccc2)CC1
11: Cc1cc(C)n(-c2ccc(F)cc2)c(=O)c1C(=O)O
12: CCN(CC)CCN1C(=O)c2ccccc2NC1c1ccc(N(C)C)cc1 (stereo not given)
13: Cc1ccc(-c2nc(C#N)c(NCCN3CCCCC3)o2)cc1
14: Cc1ccc([N+](=O)[O-])cc1-c1ccc(/C=N/NC(=O)c2cc3c(ccc4ccccc43)o2)o1
15: C=CCn1c(N)cc(=O)nc1SC(CC)C(=O)Nc1ccc(C(C)=O)cc1 (stereo not given)
16: COc1ccc(S(=O)(=O)Nc2ccccc2OC)cc1N=Nc1c(O)[nH]c(=S)[nH]c1=O

assay / compound,9,10,11,12,13,14,15,16
Sfp PPTase inh,-4%,x,6%,-8%,18%,-3%,-4%,x
ClpP mod,-1.6%,-0.9%,-4.7%,-9.5%,u,-11%,x,x
Menin MLL FP FL,5.3,x,3.0,-1.4,1.1,-2.7,-1.8,x
gsp antag,-7%,u,8%,3%,8%,3%,-21%,-15%
gsp agonist,u,15%,u,18%,-24%,11%,1%[15.4 µM],6%
TRPV1 PAM,-3,14,3,-7,-10,13,0,x
D2 potentiator,16,-1,-10,-50,-2,9,-10,-6

# Just Menin MLL FP FL and Sfp PPTase inh, for two of the compounds above:
entry	SMILES	Menin MLL FP FL	Sfp PPTase inh
15	C=CCn1c(N)cc(=O)nc1SC(CC)C(=O)Nc1ccc(C(C)=O)cc1 (stereo not given)	-1.8	-4%
11	Cc1cc(C)n(-c2ccc(F)cc2)c(=O)c1C(=O)O	3.0	6%

# Continued:
17: COc1ccc(S(=O)(=O)NC2CC(C)(C)NC(C)(C)C2)cc1C(C)C
18: CCCCOc1ccc(/C=C/C(=O)OCC(=O)c2c(N)n(C)c(=O)n(C)c2=O)cc1OCC
19: O=c1ncn(-c2ccc(F)cc2)c2ncccc12
20: Cn1c(=O)[nH]c(=O)c2c1nc(Br)n2CCCSc1nc2ccccc2o1
21: N#Cc1ccc(CSc2nnc(-c3ccccc3)n2Cc2ccco2)cc1
22: Cc1cc(-c2nnn(CCCOC(C)(C)C)c2C)ccc1-c1cn(CCCOC(C)(C)C)nn1
23: O=C(COc1ccccc1)Nc1nnc(S(=O)(=O)N2CCCCC2)s1
24: COc1cccc(CNC(=O)C2CCN(S(=O)(=O)c3ccc4c(c3)CC(C)N4C(=O)C3CC3)CC2)c1 (stereo not given)

assay / compound,17,18,19,20,21,22,23,24
Sfp PPTase inh,-2%,-4%,14%,-3%,-2%,x,14%,6%
ClpP mod,x,x,-0.7%,-1.0%,-1.1%,0.6%,-1.2%,-4.2%
Menin MLL FP FL,-2.7,5.5,6.0,0.9,1.1,x,x,-5.0
gsp antag,14%,10%,3%,-5%,-6%,x,-24%,-24%
gsp agonist,-2%[15.4 µM],11%[15.4 µM],2%,29%,-61%[inhibitor],u,u,-12%
TRPV1 PAM,15,-2,-6,u,25,x,-9,26
D2 potentiator,-5,-4,14,2,-8,2,-4,-9

# Brought forward from above: 2 entries, then new ones.
23: O=C(COc1ccccc1)Nc1nnc(S(=O)(=O)N2CCCCC2)s1
24: COc1cccc(CNC(=O)C2CCN(S(=O)(=O)c3ccc4c(c3)CC(C)N4C(=O)C3CC3)CC2)c1 (stereo not given)
25: O=C(c1ccc(S(=O)(=O)Nc2ccccc2F)cc1)N1CCCCCC1
26: O=C1ON(Cc2ccccc2)C(c2ccccc2)N1c1ccccc1 (stereo not given)
27: CCOC(=O)Cn1c(=O)oc2cc(S(=O)(=O)NCC3CCCO3)ccc21 (stereo not given)
28: O=C(c1ccccc1)C1CCN(C(=O)c2cccs2)CC1
29: Cc1nc2ccc(S(=O)(=O)NC(C(=O)N3CCC(C)CC3)C(C)C)cc2s1 (stereo not given)
30: Cc1cc(C)c(S(=O)(=O)Nc2c(C)[nH]c(=O)[nH]c2=O)c(C)c1
31: CCOc1cc(CN2CCCCC2)ccc1OC
32: Cc1cc(NS(=O)(=O)c2ccc(NC(=S)NC(=O)c3ccc(Cl)cc3Cl)cc2)no1

assay / compound,23,24,25,26,27,28,29,30,31,32
Sfp PPTase inh,14%,6%,x,x,3%,-3%,19%,13%,7%,11%
ClpP mod,-1.2%,-4.2%,-0.3%,1.0%,0.2%,x,-1.2%,-6.7%,-1.5%,1.5%
Menin MLL FP FL,x,-5.0,x,x,1.1,2.0,0.9,-0.4,4.3,16
gsp antag,-24%,-24%,-1%,-23%,9%,6%,3%,4%,-4%,-15%
gsp agonist,u,-12%,20%,-8%,-9%,-3%[15.4 µM],-28%,24%,-39%[inhibitor],16%
TRPV1 PAM,-9,26,-3,x,19,-6,x,-21,-5,10
D2 potentiator,-4,-9,11,-1,-4,-2,-10,-12,-13,-11

33: COc1ccc(NC(=O)C2=C(C)NC(=O)NC2c2ccccc2[N+](=O)[O-])cc1 (stereo not given)
34: COc1ccc(NC(=O)CN(C)S(=O)(=O)c2ccc(Br)s2)cc1OC
35: C[C@H]1CNC(=O)c2c(C(=O)N[C@@H](Cc3c[nH]c4ccccc34)C(=O)OC(C)(C)C)ncn21
36: COc1cc2c(cc1OC)[C@H](C)N(C(=S)Nc1ccc(F)cc1)CC2
37: c1ccc2c(c1)-c1cccc3cncc-2c13
38: Cc1ccc(S(=O)(=O)N2CCC[C@H]2C(=O)OCC(=O)c2ccc3c(c2)NC(=O)CO3)cc1
39: C=CCn1c(SCC(=O)c2c(N)n(C3CC3)c(=O)[nH]c2=O)nnc1-c1ccccc1OC
40: CCOc1ccccc1Nc1nc(N)nc(CSc2nccc(C)n2)n1

assay / compound,33,34,35,36,37,38,39,40
Sfp PPTase inh,1%,11%,x,9%,x,4%,x,-6%
ClpP mod,x,x,-0.2%,x,2.2%,-4.5%,-2.3%,0.1%
Menin MLL FP FL,4.8,0.1,x,2.2,x,19,x,3.5
gsp antag,4%,-1%,x,1%,-13%,-27%,-2%,8%
gsp agonist,26%[15.4 µM],u,15%,16%[15.4 µM],-8%[15.4 µM],-40%[inhibitor],-2%[15.4 µM],-32%[inhibitor]
TRPV1 PAM,-4,23,x,-9,x,-8,-4,7
D2 potentiator,0,-5,-4,-4,-5,0,-6,2

41: C/C(=N\NC(=O)c1ccccc1N)c1ccc(NC(=O)Cc2ccccc2)cc1
42: Cc1ccc(-c2cc(C(=O)Nc3cccnc3)c3ccccc3n2)s1
43: CC(C)(C)c1ccc(CSc2ccc(S(=O)(=O)N3CCOCC3)cn2)cc1
44: Cc1ccc2c(c1)nnn2C1CCN(S(=O)(=O)c2ccc3ccccc3c2)CC1
45: CC1CCc2c(sc(NC(=O)c3ccc(Cn4cc([N+](=O)[O-])cn4)o3)c2C#N)C1 (stereo not given)
46: CO/N=C/C(=N\Nc1ccccc1)C(=O)c1ccccc1
47: CCOC(=O)Cc1csc(NC(=O)c2c(O)c3ccccc3n(CC(C)C)c2=O)n1
48: CCS(=O)(=O)N1CCN(CC(=O)NC2CCCCC2)CC1
49: COc1ccc(C)cc1S(=O)(=O)Nc1ccc2c(c1)N(C(C)=O)CCC2

assay / compound,41,42,43,44,45,46,47,48,49
Sfp PPTase inh,2%,-3%,x,25%,4%,-23%,8%,11%,x
ClpP mod,-1.9%,16µM*,-3.3%,-8.7%,-2.8%,x,0.4%,x,-2.6%
Menin MLL FP FL,-0.3,6.1,x,5.9,1.7,0.6,-1.0,-2.1,x
gsp antag,6%,-8%,6%,-11%,0%,-8%,-1%,-2%,-8%
gsp agonist,1%[15.4 µM],-8%[15.4 µM],-4%,-29%,-2%,-11%[15.4 µM],-41%[inhibitor],-5%[15.4 µM],-19%
TRPV1 PAM,3,-3,-4,10,-6,-4,-6,0,-2
D2 potentiator,-4,-23,-7,-3,-4,-2,-6,-4,7

# From entry 45 up to 49, copied from above:
45: CC1CCc2c(sc(NC(=O)c3ccc(Cn4cc([N+](=O)[O-])cn4)o3)c2C#N)C1 (stereo not given)
46: CO/N=C/C(=N\Nc1ccccc1)C(=O)c1ccccc1
47: CCOC(=O)Cc1csc(NC(=O)c2c(O)c3ccccc3n(CC(C)C)c2=O)n1
48: CCS(=O)(=O)N1CCN(CC(=O)NC2CCCCC2)CC1
49: COc1ccc(C)cc1S(=O)(=O)Nc1ccc2c(c1)N(C(C)=O)CCC2

assay / compound,45,46,47,48,49
Sfp PPTase inh,4%,-23%,8%,11%,x
ClpP mod,-2.8%,x,0.4%,x,-2.6%
Menin MLL FP FL,1.7,0.6,-1.0,-2.1,x
gsp antag,0%,-8%,-1%,-2%,-8%
gsp agonist,-2%,-11%[15.4 µM],-41%[inhibitor],-5%[15.4 µM],-19%
TRPV1 PAM,-6,-4,-6,0,-2
D2 potentiator,-4,-2,-6,-4,7

# Source: PubChem (National Center for Advancing Translational Sciences (NCATS))
